# MgrA DNA FP: S. aureus MgrA activity modulators, primary screen, biochemical, S. aureus Newman, fluorescence polarization; MgrA-DNA binding; inhibition, %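 (about 10 µg/mL by stock and volumes)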; actives 0.13% (n = 84,000); AID 602314, 2012;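 active means above 50% in either of two replicates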;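 further: 0% = protein plus DNA without compound and 100% = DNA alone without protein; higher means less MgrA bound to DNA so lower polarization; one replicate is shown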
# S aureus helic: inhibitors of S. aureus replicative helicase, primary screen, biochemical, fluorescence unwinding readout; replicative DNA helicase (DnaC/DnaB), Staphylococcus aureus; purified S. aureus helicase, fluorescence unwinding assay; about half of the hits fall short of the stated cut; inhibition, %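 (tested at about 80 µM)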; actives 0.05% (n = 120,000); AID 485395, 2010;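 active means both duplicates at 50% or more, or one of them with a favoured structure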;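 further: 0% = mean of negative control wells and 100% = mean of positive control wells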
# * marks the source's active call; other numbers are inactive results; / = no result given; & = joins results of further samples.
[1] CS(=O)(=O)C1CS(=O)(=O)CC1O (stereo not drawn)
[2] COS(=O)(=O)c1ccc2c(c1)OC(C)(C)CC2=O
[3] CC(CN(C)C)CN1c2ccccc2Sc2ccccc21 (stereo not drawn)
[4] O=C1OCc2ccc(NS(=O)(=O)c3ccc(N4C(=O)CCC4=O)cc3)cc21
[5] CC1CC(C)N(C(=O)c2cc(-c3ccccc3)on2)C(C)C1 (stereo not drawn)
[6] Cc1cnc(NC(=O)C2=NN(c3ccccc3)C(=O)CC2)s1
[7] O=C(O)CCSc1nc2ccccc2c(=O)[nH]1
[8] CN1C(=O)/C(=C2\SC(=S)N(c3cccc(Br)c3)C2=O)c2ccccc21

assay / compound | 1 | 2 | 3 | 4 | 5 | 6 | 7 | 8
MgrA DNA FP | -2.2 | -2.0 | -1.7&-0.1 | / | -0.4 | / | / | -3.8
S aureus helic | / | / | / | 4 | -2 | -11 | 9 | /

# Three compounds out of the list above, sorted by their value in S aureus helic, highest first.
no. | smiles | MgrA DNA FP | S aureus helic
7 | O=C(O)CCSc1nc2ccccc2c(=O)[nH]1 | / | 9
4 | O=C1OCc2ccc(NS(=O)(=O)c3ccc(N4C(=O)CCC4=O)cc3)cc21 | / | 4
6 | Cc1cnc(NC(=O)C2=NN(c3ccccc3)C(=O)CC2)s1 | / | -11

# Given with values under each structure: part of the list above
# The line under a structure holds: MgrA DNA FP, S aureus helic
1: CS(=O)(=O)C1CS(=O)(=O)CC1O (stereo not drawn)
→ -2.2, /
2: COS(=O)(=O)c1ccc2c(c1)OC(C)(C)CC2=O
→ -2.0, /
3: CC(CN(C)C)CN1c2ccccc2Sc2ccccc21 (stereo not drawn)
→ -1.7&-0.1, /
4: O=C1OCc2ccc(NS(=O)(=O)c3ccc(N4C(=O)CCC4=O)cc3)cc21
→ /, 4

# The results go on.
[9] Nc1ccccc1CC(c1c[nH]c2ccccc12)c1c[nH]c2ccccc12
[10] Oc1ccc(SSc2ccc(O)cc2)cc1
[11] CCOC(=O)/C=c1\s/c(=C\c2cccs2)c(=O)n1CC(N)=O
[12] O=C1CC(=O)c2c(Cl)c(Cl)c(Cl)c(Cl)c21
[13] O=C(c1c[nH]c(-c2nnc3ccccn23)c1)c1ccccc1O
[14] COc1cc(C(=O)Nc2nnc(CCS(=O)(=O)c3ccc(Cl)cc3)s2)cc(OC)c1OC
[15] Cc1c(NC(=O)c2nn(C(C)C)c(=O)c3ccccc23)c(=O)n(-c2ccccc2)n1C
[16] C=CCn1c(C)ccc1C

assay / compound | 9 | 10 | 11 | 12 | 13 | 14 | 15 | 16
MgrA DNA FP | -1.1 | 5.2 | / | 28 | / | -1.2 | / | -0.6
S aureus helic | 3 | -3 | -13 | / | -31 | / | -10 | -29

[17] CCCc1c(C(=O)O)cnn1-c1ccccc1
[18] Cc1nc2c(cc1C#N)C(O)Oc1c(Cl)cc(Cl)cc1-2 (stereo not drawn)
[19] CCn1c(=O)n(CC)c2cc(N3CCCC3)c(NS(C)(=O)=O)cc21
[20] O=C(Cc1ncc(C(F)(F)F)cc1Cl)NO
[21] O=C(Nc1ccccc1)ON=C1CCCC1
[22] CCOc1ccc(N=C(c2ccccc2)N2CCOCC2)cc1
[23] COc1ccccc1Nc1nc(-c2ccc(OC)c(OC)c2)cs1
[24] Cc1[nH]c(-c2ccc(F)cc2)cc1C(=O)N1CCN(C2CCCCC2)CC1

assay / compound | 17 | 18 | 19 | 20 | 21 | 22 | 23 | 24
MgrA DNA FP | -0.1 | / | / | 1.8 | 2.4 | -0.7 | / | /
S aureus helic | / | -16 | -25 | / | -5 | 10 | 6 | -30

[25] COC(=O)CN(C(=O)c1cc2ccccc2oc1=O)c1ccc(Br)cc1
[26] Cc1ccc(-n2c(SCCCC#N)nnc2-c2ccccc2)cc1C
[27] CCOC(=O)C1CCCCN1Cc1ccc(C)cc1 (stereo not drawn)
[28] CC(C)Oc1ccccc1Nc1ncnc2ccccc12
[29] CC1CCCCN1C(=O)CNCc1ccc(F)cc1 (stereo not drawn)
[30] COc1ccc(-c2ccc(C(=O)O)c(=O)[nH]2)cc1
[31] Cc1cccc(Nc2nc3nonc3nc2Cl)c1
[32] COC(=O)c1ccc(OC(=O)c2cccnc2SC)cc1

assay / compound | 25 | 26 | 27 | 28 | 29 | 30 | 31 | 32
MgrA DNA FP | -0.3 | / | -0.2 | -3.0 | -2.6 | -2.8 | -2.0 | /
S aureus helic | 7 | 5 | 1 | 7 | 2 | 8 | 8 | 18

# 4 of these compounds, set out differently:
# Second line of a record: MgrA DNA FP, S aureus helic
7. O=C(O)CCSc1nc2ccccc2c(=O)[nH]1
    /, 9
8. CN1C(=O)/C(=C2\SC(=S)N(c3cccc(Br)c3)C2=O)c2ccccc21
    -3.8, /
9. Nc1ccccc1CC(c1c[nH]c2ccccc12)c1c[nH]c2ccccc12
    -1.1, 3
10. Oc1ccc(SSc2ccc(O)cc2)cc1
    5.2, -3

# Continued.
[33] Cc1cc(C)nc(/N=C(/NC(=O)Nc2cccc(Cl)c2)Nc2ccccc2C)n1
[34] Cc1nn(-c2ccccn2)c2c1C(=O)CC(c1ccco1)C2 (stereo not drawn)
[35] O=C(O)CCC(=O)N1N=C2/C(=C/c3ccc(F)cc3)CCCC2C1c1ccc(F)cc1 (stereo not drawn)
[36] COc1ccc(-c2nc3ccccc3n2C)cc1
[37] OC(CSc1ccc(Cl)cc1)CN1CCOCC1 (stereo not drawn)
[38] Cc1ccccc1NC(=O)CSC(=O)c1ccccc1
[39] CC(C)(C)SC(=S)SCC(=O)c1ccc(Cl)cc1
[40] O=C1Nc2ccccc2/C1=C\C1CC2C=CC1C2 (stereo not drawn)

assay / compound | 33 | 34 | 35 | 36 | 37 | 38 | 39 | 40
MgrA DNA FP | 0.8 | -6.6 | 1.9 | 2.5 | / | 6.7 | -2.6 | 2.6
S aureus helic | 4 | 18 | 5 | 19 | 0 | -11 | / | /

[41] Cc1ccc(-c2noc(C3CCN(C(=O)Nc4ccc(C#N)cc4)CC3)n2)o1
[42] C=C1Cn2c(nnc2-c2sc3ccccc3c2Cl)S1
[43] OC(c1nnc(-c2ccccc2)o1)c1cn(-c2ccccc2)nc1-c1cccnc1 (stereo not drawn)
[44] Cc1cc(C)c2c(-n3cccc3)nn(CC(=O)NC(C)c3ccc4c(c3)OCCO4)c2n1 (stereo not drawn)
[45] COC(=O)c1ccccc1NC(=O)c1cc(OC)cc(OC)c1
[46] COc1cc(Br)cc(C2C3=C(CCCC3=O)N(c3ccc(F)cc3)C3=C2C(=O)CCC3)c1O
[47] O=C(NCCO)c1nnc(-c2ccccc2)o1
[48] COc1ccccc1N1CCN(CC(O)COc2ccccc2C(C)(C)C)CC1 (stereo not drawn)

assay / compound | 41 | 42 | 43 | 44 | 45 | 46 | 47 | 48
MgrA DNA FP | -1.8 | / | / | / | 4.6 | -0.2 | / | /
S aureus helic | 6 | 7 | 36 | 7 | 8 | 4 | 17 | -8

# An excerpt from above in order of SMILES length, lowest first:
[47] O=C(NCCO)c1nnc(-c2ccccc2)o1
[48] COc1ccccc1N1CCN(CC(O)COc2ccccc2C(C)(C)C)CC1 (stereo not drawn)
[41] Cc1ccc(-c2noc(C3CCN(C(=O)Nc4ccc(C#N)cc4)CC3)n2)o1

assay / compound | 47 | 48 | 41
MgrA DNA FP | / | / | -1.8
S aureus helic | 17 | -8 | 6

# The listing continues:
[49] COC(=O)/C=C1\SC(=Nc2ccc(C)c(C)c2)N(c2ccc(C)c(C)c2)C1=O
[50] N=C1c2ccccc2CN1c1ccc2c3c(cccc13)C(=O)N2
[51] CC(=NCCc1c[nH]c2ccccc12)c1ccccc1O
[52] COc1ccccc1N1CCN(C(=O)C2C3C=CC(O3)C2C(=O)O)CC1 (stereo not drawn)
[53] C1CN(c2nc(N3CCOCC3)nc(N3CCOCC3)n2)CCO1
[54] O=C1NC2(CCN(C(=O)NCc3ccc(F)cc3)CC2)Oc2ccccc21
[55] CCOc1ccc(C2(C)N([O-])C(CC)=C(c3ccccc3)[N+]2=O)cc1 (stereo not drawn)
[56] CCN(CC)c1nc(N(CC)CC)[nH]c(=O)n1

assay / compound | 49 | 50 | 51 | 52 | 53 | 54 | 55 | 56
MgrA DNA FP | 0.3 | / | 0.2 | 0.9 | -2.3 | / | / | /
S aureus helic | / | 12 | / | 10 | / | -12 | -1 | 7

[57] CC1CCCCC1n1c(-c2cccnc2)n[nH]c1=S (stereo not drawn)
[58] Cc1nc2cc(NC(=O)c3ccc([N+](=O)[O-])cc3)ccc2s1
[59] COc1ccc(O)c(C(=O)c2cc(C#N)c(=O)n(CC3CCCO3)c2)c1 (stereo not drawn)
[60] O=C(O)c1coc2c1/C(=N/N1CCCCC1)CCC2
[61] CC(C)NC(=O)CCCN1C(=O)CSc2ncccc21
[62] CCCn1c2ccccc2c2nnc(SC(CC)C(=O)Nc3nc(C)c(C(=O)OCC)s3)nc21 (stereo not drawn)
[63] CCN(C(=O)NCc1ccccc1)C1CCCCC1
[64] Cc1c(C(=O)NCc2ccco2)oc2ccc(S(=O)(=O)N3CCC4(CC3)OCCO4)cc12

assay / compound | 57 | 58 | 59 | 60 | 61 | 62 | 63 | 64
MgrA DNA FP | / | -0.5 | / | -0.4 | -1.1 | -3.4 | 5.2 | /
S aureus helic | -6 | / | -28 | / | 2 | 6 | 7 | 25

[65] CC1CCC(=NNC(=S)NCC2CCCO2)CC1 (stereo not drawn)
[66] CCOC(=O)N1CCN(C(=O)Cc2cccc3ccccc23)CC1
[67] CCOC(=O)c1ccc(SCC(=O)Nc2c(C)cc(C)cc2C)c([N+](=O)[O-])c1
[68] O=C(/C=C/c1ccc2c(c1)OCO2)Nc1ccc(Br)cc1
[69] O=C(CSc1nc2c(n1-c1ccccc1)CCCC2)N1CCN(C(=O)c2cccs2)CC1
[70] O=C(NC1CCCC1)C1CCCN(S(=O)(=O)N2CCCC2)C1 (stereo not drawn)
[71] COc1ccccc1C(=O)CS(=O)(=O)c1ccc(C)cc1
[72] O/N=C/c1ccccc1Cl

assay / compound | 65 | 66 | 67 | 68 | 69 | 70 | 71 | 72
MgrA DNA FP | / | -0.4 | 1.7 | 0.8 | / | 0.7 | 1.8 | /
S aureus helic | 14 | 7 | / | / | 17 | 9 | 29 | 11

[73] Cc1nc2ccc(C(F)(F)F)cc2[nH]1
[74] O=C1NC(Nc2nccs2)(C(F)(F)F)C(=O)N1CCc1ccccc1 (stereo not drawn)
[75] O=C(CNCc1ccco1)Nc1ncc(Cc2ccc(Cl)cc2)s1
[76] CCCn1nc(C(=O)NCC)c2ccccc2c1=O
[77] Clc1ccc2noc(-c3ccccc3)c2c1
[78] CCCn1c(NCc2ccc(OC)cc2)nc2ccccc21
[79] CCOC(=O)Nc1cc(C(F)(F)F)ccc1C(F)(F)F
[80] O=C(COC(=O)c1ccc2c(c1)NC(=O)CS2)NCc1cccs1
[81] O=C(CSc1c[nH]c2ccccc12)N1CCCc2ccccc21
[82] COc1cc(OC)c(C(=O)N2CCCCCCC2)cc1OC

assay / compound | 73 | 74 | 75 | 76 | 77 | 78 | 79 | 80 | 81 | 82
MgrA DNA FP | / | / | / | / | 2.3 | -1.1 | / | / | / | 1.8
S aureus helic | 20 | 31 | 2 | -18 | / | 10 | 10 | 6 | 5 | 8

# Not all compounds are listed, so the mix of outcomes need not match the whole.
